Calb biofilm kill: clotrimazole potentiators killing C. albicans biofilm, primary screen, 4-compound mixtures; C. albicans biofilm persisters + clotrimazole, fluorescence viability; primary screen in compound mixtures of four per well; inhibition, % at 7.6 µM; actives 0.02% (n = 120,000); AID 1242, 2008;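 active = inhibition above 30.3% in the primary screen of four-compound pools, then above 30% when the compound was retested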;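 note: compounds exposed to preformed 24 h biofilms for 48 h; the number belongs to the whole pool; some results filed as inactive read as strong as hits; inactives centre near 12; 0% = biofilm with clotrimazole alone and 100% = kill control; retested singly at about 60 µM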
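Assay system: C. albicans biofilms / Medium: RPMI/MOPS medium, pH 7.0 / Schedule: biofilm formation 24 h, compound exposure 48 h, 37 °C / Measured by: Alamar Blue fluorescence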
Starred values were filed as active, the others as inactive. Some of the compounds tested; rates above refer to the full screens.

Structure	Calb biofilm kill
COCCn1c(=O)[nH]c(=O)c2cc(C(=O)c3cc(Cl)ccc3O)cnc21	13
CC(C)(C)NC(=O)NC(=O)COC(=O)Cc1c(Cl)cccc1Cl	18
O=C(Nc1cc([N+](=O)[O-])ccc1F)c1ccc2c(c1)OCCO2	1
Cc1cc(NC(=O)CCCn2nc([N+](=O)[O-])c(Br)c2C)no1	1
CCOc1ccc(S(=O)(=O)NCc2cccnc2)cc1C	7
Cc1cc(C)nc(N2CCN(C(=O)c3ccc(S(=O)(=O)N4CCCCCC4)cc3)CC2)n1	0
NC(=O)CC(NC(=O)Cc1ccc(Br)cc1)c1ccc(NC2CCCCCC2)c([N+](=O)[O-])c1 (stereo unspecified)	13
Cc1cccc(NC(=O)COc2cccc3c2CCN(C)C3=O)c1	6
O=C1CN(C(=O)COC(=O)c2cc(S(=O)(=O)N3CCOCC3)ccc2Cl)c2ccccc2N1	19
CC(=O)C1=C(O)C(=O)N(CCCn2ccnc2)C1c1ccc(Br)cc1 (stereo unspecified)	20
O=C(c1ccccc1)N(Nc1ccccc1)c1ccccc1	12
O=c1cc(-c2ccccc2)[nH]c2ccc(F)cc12	5
CCCCNC(=O)CCN1N=C(c2ccccc2)CCC1=O	17
O=C(NNC(=O)c1cccnc1)NC1CCCCC1	24
CC(=O)Oc1ccc2oc(=O)c3c(c2c1)CCCN3C(=O)CN1CCOCC1	23
CC(C)(C)NC(=O)C(=O)NN=C1CCCCCC1	27
CCCCCc1c(O)nc(SCCN(C)C)[nH]c1=O	15
CCN(CC(=O)Nc1cc(C)c(Cl)cc1OC)CC(=O)NC1CCS(=O)(=O)C1 (stereo unspecified)	-3
O=[N+]([O-])c1cccnc1Oc1ccc(C2SCCS2)cc1	17
Cc1cc(Sc2nccn2C)ncc1[N+](=O)[O-]	10
CC(C)(C)NC(=O)CN1CCN(C(=O)CCl)CC1	4
Cc1ccc(S(=O)(=O)N2CCCC2C(=O)NCc2ccc3c(c2)OCO3)cc1 (stereo unspecified)	4
Cc1nn(C)cc1N1C(=O)c2cccc3c(N)ccc(c23)C1=O	-1
O=C(CCNc1n[nH]c(=O)[nH]c1=O)N/N=C\c1ccc(Br)cc1	21
Brc1ccc(-c2nnc3n2C2(CCCC2)Cc2ccccc2-3)o1	15
CC(=O)c1ccc(N2CCN(C(=S)Nc3cccc(Cl)c3)CC2)cc1	4
O=C1Nc2c(c(=O)[nH]c(=O)n2-c2ccc(F)cc2)C1(NS(=O)(=O)c1ccccc1)C(F)(F)F (stereo unspecified)	8
C/C(CCC(C)C)=N\NC(=S)NCc1ccccc1	7
Cc1cc([N+](=O)[O-])cc([N+](=O)[O-])c1NCC(C)C	11
Cn1ncc(C(=O)N=S(C)(=O)c2ccccc2)c1[N+](=O)[O-] (stereo unspecified)	11
O=C(NCc1ccc2[nH]c3c(c2c1)CCCC3)c1ccc(S(=O)(=O)N2CCOCC2)cc1	17
CCCCC1CCC(c2ccc(C(N)=O)cc2)CC1 (stereo unspecified)	15
CS(=O)(=O)N(CC(=O)NCCSC1CCCCC1)c1ccccc1	3
O=C(Nc1ccc(NC(=O)C2CC2)nc1)c1cnccn1	10
CCOC(=O)/C=C/COc1ccccc1[N+](=O)[O-]	13
CN(Cc1ccccc1)C(=O)COc1ccc(N(C)S(=O)(=O)c2ccc(F)cc2)cc1	11
CC(C)(C)NC(=O)COC(=O)c1ccccc1Nc1ccc(SC(F)F)cc1	8
C/C(=N\NC(=S)NCC(C)(C)C)c1cc(F)cc(F)c1O	16
CNC(=O)c1c(NC(=O)c2cccc(N3C(=O)CCC3=O)c2)sc2c1CCC2	-12
CC(C)P(=O)(c1cccc(C(=O)O)c1)C(C)C	11
CCOc1ccc(CN(C(=O)c2cc3ccccc3oc2=O)C2CC2)cc1	8
COc1ccccc1/C=C1\SC(=S)N(CCC(=O)NCCCN2CCOCC2)C1=O	24
COCCNC(=O)CSc1ccc(Cl)cc1	18
CCN(CC)CCNS(=O)(=O)c1ccc(/C=C/C(=O)O)cc1	-7
COC(=O)c1cccnc1Oc1ccccc1	15
Cc1ccccc1C1C2=C(Nc3[nH]n(-c4ccccc4)c(=O)c31)c1ccccc1C2=O (stereo unspecified)	11
Cc1cc(-c2ccc([N+](=O)[O-])cc2)nc2ccccc12	7
O=C1/C(=C\c2cccs2)Sc2ccc3ccccc3c21	7
COc1cccc(CC(=O)Nc2ccc(-c3csc(C)n3)cc2)c1	15
CS(=O)(=O)Nc1nc2ccccc2[nH]1	10
O=C(O)CN=C(NS(=O)(=O)c1ccc(Cl)cc1)c1ccc(F)cc1	-1
CCCCNC(=S)N1CCN(CC)CC1	12
Cc1onc(-c2ccccc2)c1C(=O)Oc1ccccc1	25
Cc1ccc(COc2ccccc2C(=S)N2CCCC2)cc1	-3
COc1ccc(NS(=O)(=O)c2ccc(NC(C)=O)cc2)c(OC)c1	19
CC(C)C(NC(=O)OCc1ccccc1)C(=O)N1CCOCCOCCOCC1 (stereo unspecified)	11
CCCCCNS(=O)(=O)c1cc(C)ccc1OC	21
Cc1cc(C)n2nc(CC(=O)NCc3ccccc3Cl)nc2n1	18
O=c1nc2c(O)cccn2c2c1c(=O)[nH]c1ccccc12	-2
O=C(Nc1cccc(Cl)c1)c1ccc(OC(=S)N2CCOCC2)cc1	18

Later entries
Structure	Calb biofilm kill
O=C(NC1CCCCC1)C1CCCN(S(=O)(=O)c2ccc(Br)s2)C1 (stereo unspecified)	7
CCCOC(=O)CC1C(=O)NCCN1Cc1cc(OC)cc(OC)c1 (stereo unspecified)	25
COc1ccc(NC(=O)C(=O)NCCO)cc1Cl	11
CCOC(=O)c1cn(CC(=O)Nc2cccc(F)c2)nn1	10
C/C(CS(=O)(=O)c1ccc(Cl)c(Cl)c1)=N/NC(N)=S	5
CC(=O)Nc1c(NC(C)(C)C)c2ccccc2oc1=O	18
NNC(=O)c1sc2cc(C(F)(F)F)cnc2c1-c1ccccn1	12
Cc1ccc(C)c(-c2csc(N/N=C/c3ccco3)n2)c1	1
CCC(=O)Nc1ccc(OCc2nnc3c4ccccc4c(C)nn23)cc1	13
CN(C)S(=O)(=O)c1ccc(C(=O)NNC(=O)C2COc3ccccc3O2)cc1 (stereo unspecified)	-1
CCOC(=O)N1CCN(C(=O)CSc2ccc3nnc(-c4ccccn4)n3n2)CC1	15
CCOc1ccc(-n2c(SCC(=O)NCc3ccco3)nc3ccccc3c2=O)cc1	14
Cc1cccc2cc(C(c3nnnn3Cc3ccccc3)N3CCN(C)CC3)c(=O)[nH]c12 (stereo unspecified)	8
CCCCNC(=O)CSc1nc2ccc(N3CCOCC3)cc2c(=O)n1Cc1ccc(OC)cc1	12
COc1cc(-c2n[nH]c(=S)n2-c2ccccc2C(F)(F)F)cc(OC)c1OC	7
CCCC(=O)Nc1ccccc1NC(=O)c1ccc(OC(C)=O)cc1	12
Cc1ccc(-c2ccc(/C=N/NC(N)=S)o2)cc1	14
COc1cccc(C(=O)Nc2cc3c(cc2Cl)OCCCO3)c1	-3
COc1cc(C(=O)NNC(=S)NC(=O)/C=C/c2ccccc2)cc(OC)c1OC	23
NCCCCc1cn(CC(=O)N2CCNCC2)nn1	21
CCOC(=O)C1(Cc2cccc(F)c2)CCN(Cc2cnn(CC)c2)CC1	9
Cc1cc(C)c2cc(CNC3CCCC3)c(Cl)nc2c1	8
Cc1cccc(C(=O)N[C@H](C(=O)Nc2ncc(C)s2)C(C)C)c1	9
CCN(CC)CCCNC1=C(Cl)C(=O)c2ccccc2C1=O	15
O=C(COc1ccccc1)NNC(=O)c1cc2ccccc2oc1=O	23
N#Cc1ccccc1NC(=O)COC(=O)/C=C/c1cn(-c2ccccc2)nc1-c1ccc(Cl)cc1	20
N=C1C(c2nc3ccccc3s2)=C(O)CN1C1CCC(O)CC1 (stereo unspecified)	22
O=C(CC1C(=O)NCCN1C(=O)Nc1ccc(Cl)cc1)Nc1ccc(F)cc1 (stereo unspecified)	13
COc1ccccc1N1C(=O)[C@@H]2C(C(=O)CN3C(=O)c4ccccc4C3=O)=NN[C@@H]2C1=O	32
Nn1c(COc2ccc(Cl)cc2)nc2ccccc2c1=O	8
O=C(NCc1ccco1)C(=O)NCC1OCCN1S(=O)(=O)c1ccc(F)cc1 (stereo unspecified)	15
CCOc1ccc(C2c3[nH]c4ccccc4c3CCN2C(=O)Cn2cncn2)cc1 (stereo unspecified)	18
Cc1cc(NC(=O)CSCCc2ccncc2)no1	15
Cc1nc(Cl)cc(CS(=O)(=O)c2ccc(Cl)cc2)n1	14
Cc1c(C)c(C)c(S(=O)(=O)N2CCNCC2)c(C)c1C	9
COC(=O)CC1C(=O)NCCN1Cc1cn(-c2ccc(C)cc2)nc1-c1cccc(C)c1 (stereo unspecified)	8
CC(=O)Nc1ccc(NC(=O)c2ccc(C3SCC(=O)N3CCc3ccccc3)cc2)cc1 (stereo unspecified)	17
CCOc1ccc(Br)cc1S(=O)(=O)Nc1ccc(C(=O)OC(C)C(=O)N(C)c2ccccc2)cc1 (stereo unspecified)	26
CCC(=O)N(CC(=O)Nc1sc(C)c(C)c1C(N)=O)Cc1ccc(F)cc1	21
O=c1c2cn[nH]c2[nH]c(=S)n1-c1cccc(Cl)c1	18
COc1ccc(-c2cnc3c(c2)CCC3(C#N)C#N)cc1	10
Cc1cc(=O)[nH]c(N/N=C/c2c(C)oc3ccccc23)n1	13
CCOC(=O)c1ccc(NC(=S)N(CCCN2CCN(CC)CC2)Cc2ccco2)cc1	14
O=C(COC(=O)c1cc(S(=O)(=O)N2CCCCC2)ccc1N1CCOCC1)NCCc1ccc(F)cc1	-10
O=C(NCc1ccco1)C(=S)N1CCCC1	13
Cc1ccc(CNC(=S)Nc2ccc(OC(F)F)cc2C)cc1	21
Cc1ccc(OCC(=O)Nc2ccc3c(c2)OCO3)c(C)c1	13
Cc1cccc(N/C(N)=N/c2nc(C)cc(=O)[nH]2)c1	19
COc1ccc(C2=[N+]([O-])C(C)(C)C(c3ccccc3)=N2)cc1	8
N#C/C(=C/c1cn(-c2ccccc2)nc1-c1cccc(OCc2ccc(F)cc2)c1)C(=O)NCCCn1ccnc1	18
CCN(CCn1cccn1)Cc1cn[nH]c1-c1ccc(-c2ccccc2)cc1	5
Cn1cc(Br)c(NC(=O)/C=C/C(=O)O)n1	20
O=C(COC(=O)CNS(=O)(=O)c1ccccc1)NC12CC3CC(CC(C3)C1)C2	10
COc1ccc(OCC(=O)Nc2ccccc2C(=O)N2CCOCC2)cc1	19
Cc1ccn2cc(-c3ccc(Br)cc3)nc2c1	10
O=C(Nc1nccs1)C(c1ccccc1)N1CCCC1 (stereo unspecified)	12
O=C(COC(=O)/C=C/c1cccc(C(F)(F)F)c1)NCc1ccc(F)cc1	16
COCCNC(=S)N1CCN(c2nc3ccccc3s2)CC1	17
CC(C)(C)n1nc2c(c1NC(=O)COc1ccccc1F)CS(=O)(=O)C2	1
CCc1cc(-c2[nH]ncc2-c2nc3ccccc3n2C)c(O)cc1O	29

Exported as labelled records: entries from further up.
> COc1ccc(OCC(=O)Nc2ccccc2C(=O)N2CCOCC2)cc1
  Calb biofilm kill: 19
> Cc1ccn2cc(-c3ccc(Br)cc3)nc2c1
  Calb biofilm kill: 10
> O=C(Nc1nccs1)C(c1ccccc1)N1CCCC1 (stereo unspecified)
  Calb biofilm kill: 12
> O=C(COC(=O)/C=C/c1cccc(C(F)(F)F)c1)NCc1ccc(F)cc1
  Calb biofilm kill: 16

Two compounds drawn at random from the list so far, as already listed:
Structure	Calb biofilm kill
CCOc1ccc(Br)cc1S(=O)(=O)Nc1ccc(C(=O)OC(C)C(=O)N(C)c2ccccc2)cc1 (stereo unspecified)	26
Cc1ccc(CNC(=S)Nc2ccc(OC(F)F)cc2C)cc1	21

Remaining list, next part.
Structure	Calb biofilm kill
O=C1NCN(CCO)CN1	55
NS(=O)(=O)c1ccc(CCNC(=O)CSc2nc3ccccc3c(=O)n2CCN2CCOCC2)cc1	-1
CC(=O)NC(Cc1ccccc1F)C(=O)NC1CCN(c2ncccc2[N+](=O)[O-])CC1 (stereo unspecified)	11
Cc1ccc(OCC(=O)NC(=S)Nc2cccc(C)n2)cc1	5
C=CCn1c(COc2cccc(C)c2)nnc1SCC(=O)c1c[nH]c2c(CC)cccc12	9
CCOC(=O)c1nn(-c2ccccc2)c2nc(-c3ccc(OC)cc3)c(C#N)c(=O)n12	12
Cc1cccc(/C(N)=N/OC(=O)c2ccc(F)cc2)c1	10
CC1=CC(C)(C)N(C(=O)CNC2CCCC2)c2cc(C)ccc21	10
COc1ccccc1CN1C[C@@H]2C[C@@H](c3ccc(Cl)cc3)N3CCC[C@@]23C1=O	30
CCCc1cc(=O)[nH]c(SCC(=O)c2ccc3c(c2)OCCO3)n1	7
Nc1nc(N2CCN(C(c3ccccc3)c3ccccc3)CC2)n[nH]1	12
N#Cc1c(N)nc2c(c1N)CC(C(F)(F)F)O2 (stereo unspecified)	17
Cc1ccc(NCc2ccccc2F)cc1	16
O=C(CSc1nnc(-c2ccncc2)o1)N1CCCC1	9
CCN(C(=S)Nc1cccnc1)c1cccc2ccccc12	10
CC(On1nnc2ccccc21)C(=O)N1CCN(Cc2ccccc2)CC1 (stereo unspecified)	9
CC(C)(C)C(=O)NC(=S)Nc1cccc(C(=O)O)c1	8

High-throughput results (PubChem)
